Screening data deposited in PubChem by National Center for Advancing Translational Sciences (NCATS).
TRPV1 PAM – human TRPV1 potentiation. TRPV1-expressing cells, Fluo-8 calcium influx, capsaicin EC20 potentiation; host cell line not named in the record; control for the full effect not named in the record. potentiation, % at 8.33 µM. 0.02% of 320,000 active. AID 540277. Q8NER1; active means potentiation above 80%; inconclusive means 30% to 80%; inactive means below 30%; also: 0% is about no effect
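TRPV1-expressing cells were cultured overnight at 35.5C and loaded with Fluo-8 calcium dye for 40 to 90 min at room temperature. After a 10 s baseline, compound was added and calcium influx was read kinetically for 3 min (ex 480/em 520 nm).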
CtBP-E1A blk – CtBP/E1A binding inhibition | 0.49% of 340,000 active | AlphaScreen GST-E1A/His-CtBP binding, 1536-well; hits give low values; control for the full effect not named in the record | AID 651724 | activity change, % (no concentration beside the values); in the data active means activity change below about -65%; inconclusive means about -30% to -65%; inactive means above about -30%; also: % is scaled to controls: 0 for no effect and ±100 for the full control effect; compound concentration not given in the record
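AlphaScreen with 125 nM GST-E1A and 125 nM His-CtBP (5X stocks) in Tris pH 8.0, 300 mM NaCl, BSA, Tween 20, TCEP. Compounds preincubated 2 h at 37 deg C, then glutathione donor/nickel acceptor beads added for 1 h at 37 deg C in dark.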
Six1-Eya2 inh – inhibitors of human Six1/Eya2 interaction; activity change, % (test concentration not listed); 0.56% of 360,000 active; Q15475+O00167; AlphaScreen GST-Six1/His-Eya2 binding, biochemical; hits give low values; control for the full effect not named in the record; AID 651725; in the data active = activity change below about -65%; inconclusive = about -30% to -65%; inactive = above about -30%; also: % is scaled to controls: 0 for no effect and ±100 for the full control effect; compound concentration not given in the record
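AlphaScreen with GST-Six1 and His-Eya2 (5X mix: 250 nM and 500 nM), glutathione donor and nickel acceptor beads; buffer 50 mM Tris pH 8.0, 300 mM NaCl, 1 mM TCEP; 1 h at 37 C in the dark.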
D2 agonist – activates the human D2 dopamine receptor. P14416. DiscoveRx PathHunter D2 beta-arrestin, luminescence, 90 min; 100% = 57 uM dopamine signal. activation, % (concentration not given with the values). 0.084% of 360,000 active. AID 624465; in the data active = activation above about 40%; inconclusive = about 15% to 40%; inactive = below about 15%; also: compound concentration not given in the record; the text of the record calls up to 30% inactive
Target sequence (P14416 whole entry, looked up): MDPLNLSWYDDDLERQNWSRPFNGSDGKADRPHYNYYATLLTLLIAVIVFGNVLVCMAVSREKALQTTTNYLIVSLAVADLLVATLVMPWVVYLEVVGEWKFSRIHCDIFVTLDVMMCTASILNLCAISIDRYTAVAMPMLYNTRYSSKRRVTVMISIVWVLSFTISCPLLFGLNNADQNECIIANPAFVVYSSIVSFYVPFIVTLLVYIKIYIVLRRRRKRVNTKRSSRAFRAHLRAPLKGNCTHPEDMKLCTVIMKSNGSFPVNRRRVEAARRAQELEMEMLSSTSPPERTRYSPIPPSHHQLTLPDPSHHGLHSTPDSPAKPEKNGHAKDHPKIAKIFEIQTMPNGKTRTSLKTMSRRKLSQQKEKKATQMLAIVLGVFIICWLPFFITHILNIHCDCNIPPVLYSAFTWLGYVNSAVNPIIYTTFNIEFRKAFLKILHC
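Agonist mode: compounds alone added to overnight-plated D2 PathHunter cells for 90 min at 37 C, with 57 uM final dopamine (EC100) defining full response. Beta-arrestin recruitment detected by chemiluminescent reagent, read after 1 h at ambient temperature.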
Sfp PPTase inh – inhibitors of Bacillus subtilis Sfp phosphopantetheinyl transferase. Q9F4F7. Potency, µM, inactives show max response, negative = inhibition, most hits filed as inhibitors. Biochemical Sfp PPTase activity, qHTS. 3.5% of 310,000 active; active = well fitted inhibition curve with a large enough effect; inconclusive = small, poorly fitted or top-dose-only effect, or another doubt; inactive = no such curve, though single readings can be large or run the other way;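 also: the enzyme is Sfp with the accession as filed and its product quenches rhodamine fluorescence; potency is read from the fitted curve at half-maximal effect; 0% = enzyme reaction without inhibitor and -100% = no enzyme wells; top concentration of the series not given in the record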
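Sfp 15 nM + cpd, 15 min RT; start w/ rhodamine-CoA 5 uM, BHQ-2-YbbR 12.5 uM (final); 50 mM Hepes pH 7.6, 10 mM MgCl2, 0.01% NP-40, 0.01% BSA; read 525/598 nm at 0 and 30 min.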
D2 PAM – human D2 receptor positive allosteric modulation. P14416. DiscoveRx D2 beta-arrestin cells, luminescence, 90 min; 100% = 57 uM dopamine signal. potentiation, % (concentration not given with the values). 0.23% of 360,000 active. AID 624464; active = potentiation of 50% or more; inconclusive = 30% to 50%; inactive = 30% or less;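 also: compound concentration not given in the record; tested on top of an EC20 dose of dopamine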
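D2 cells co-treated with compound plus 50 nM dopamine (EC20) for 90 min at 37 deg C to detect potentiation. Beta-arrestin recruitment was read as enzyme-fragment luminescence after 1 h at ambient temperature. Full response was set by 57 uM dopamine.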
PINK1 expr mod – changes PINK1 expression | PINK1 immunofluorescence, high-content cytometry, 24 h | Potency, µM (highest dose often 76.6 µM), for the others: top-dose activation (PINK1 increase), hits mostly activators | 0.2% of 410,000 active; active = well fitted activation curve with a large enough effect; inconclusive = small, poorly fitted or top-dose-only effect; inactive = flat fitted curve, though single readings scatter; cell line not stated here;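 also: potency is read from the fitted curve at half-maximal effect; % of control where 0% means no effect; nearly all actives have a fitted effect of over 65% in size; a mitochondrial uncoupler was the plate control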
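Fluorescence from anti-PINK1 antibody, together with nuclear and cell stains, was scanned on a laser-scanning cytometer. Before staining, stable-line cells were incubated 24 hours with compounds at 5 concentrations; primary antibody 12 h at 10 degrees C.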
Numbers without * were called inactive; ? = inconclusive; · = no result given; & = joins results of further samples; [ ] = remark or other dose.

SMILES	TRPV1 PAM	CtBP-E1A blk	Six1-Eya2 inh	D2 agonist	Sfp PPTase inh	D2 PAM	PINK1 expr mod
O=C(O)c1ccc(NS(=O)(=O)c2cc(Cl)ccc2Cl)cc1O	12	0	6	-2.4	16%	5	-0.5%
COc1cccc(NC(=S)N(CCCN2CCOCC2)C(C)c2cc3cccc(OC)c3o2)c1 (stereo not given)	27	·	-6	-2.5	-23%	-19	1.1%
Cc1cc(O)cc(O)c1-c1onc(C(F)(F)F)c1-c1cscn1	8	0	2	2.5	18%	?	-3.1%
Cc1ccc(-c2nc3ccc(Cl)cn3c2Cc2ccccc2C(F)(F)F)cc1	·	-18	7	-3.4	·	-4	2.0%
COC(=O)c1cccc(NC(=O)CN2CCN(c3ccc(OC)cc3)CC2)c1	-2	-13	-16	-0.4	9%	-14	-1.9%
O=C(c1cc(COc2c(F)cccc2F)on1)N1C[C@H]2CC[C@H]1C2	-17	0	19	-2.3	13%	13	0.7%
COc1cccc(OC)c1C(=O)Nc1ccc(N2CCCC2)cc1	4	-27	-13	-0.8	9%	-3	1.2%
COC(=O)c1ccc(C)c(NC(=O)CSc2nnc3ccccn23)c1	?	-2	5	-3.6	·	0	-2.0%
CN(c1ccccc1)S(=O)(=O)c1cc(C(=O)c2nccn2C)ccc1Cl	-8	6	0	-2.2	0%	-16	2.9%[38.3 µM]
O=C(OCn1nnc2ccccc2c1=O)c1ccc(Br)o1	6	15	6	-2.7	17%	-9	-0.2%[38.3 µM]
COc1ccc(CN2CCNC(=O)C2CC(=O)NCc2cc(C)n(C)n2)c(F)c1 (stereo not given)	1	0	0	-4.3	-3%	-7	-0.7%
COc1ccc(-c2nnc(SCc3c(C)noc3C)o2)cc1	-12	0	-24	0.0	2%	5	1.7%
C#CC1(NC(=O)NC(C)C)CCCCC1	5	·	-2	-4.1	8%	1	4.1%
O=C(CN(C1CCCCC1)S(=O)(=O)c1ccc(Cl)cc1)N1CCOCC1	-5	-3	6	-2.0	14%	-14	-2.2%
CC(=O)Nc1ccc(S(=O)(=O)N(C)CC(=O)NNC(=O)Cc2nc3ccccc3n2C)cc1	·	-2	-27	-0.9	·	-4	-3.5%

The closing 3 entries of the section before are carried over, then new ones follow.
SMILES	TRPV1 PAM	CtBP-E1A blk	Six1-Eya2 inh	D2 agonist	Sfp PPTase inh	D2 PAM	PINK1 expr mod
C#CC1(NC(=O)NC(C)C)CCCCC1	5	·	-2	-4.1	8%	1	4.1%
O=C(CN(C1CCCCC1)S(=O)(=O)c1ccc(Cl)cc1)N1CCOCC1	-5	-3	6	-2.0	14%	-14	-2.2%
CC(=O)Nc1ccc(S(=O)(=O)N(C)CC(=O)NNC(=O)Cc2nc3ccccc3n2C)cc1	·	-2	-27	-0.9	·	-4	-3.5%
Cc1ccc(-c2nc3cc(NC(=O)C(C)C)ccc3o2)cc1C	-4	0	-1	-2.0	-8%	-7	22%[38.3 µM]
Cc1cccc2cc(CN(Cc3ccco3)C(=O)NC3CCCCC3)c(=O)[nH]c12	-31	-9	-3	-0.8	-9%	-4	-1.9%
CCc1ccc(NC(=S)Nc2cccc(OC)c2)cc1	-5	-1	-2	-1.6	-16%	-1	-3.4%
CCOC(=O)C1CCCN(S(=O)(=O)c2cc(Br)cc3c2N(C(=O)CC)CC3)C1 (stereo not given)	4	-18	-3	0.0	-16%	-2	1.8%&4.3%
COCCCNC(=O)CCSc1ccc(C)cc1	26	4	10	-1.8	21%	-5	0.6%
Nc1ccc(-c2ccc(N)c([N+](=O)[O-])c2)cc1[N+](=O)[O-]	1	·	-10	-6.9	-1%	-11	0.2%
Cc1ccn2c(Nc3ccc4c(c3)OCO4)c(-c3ccc(O)cc3)nc2c1	-7	·	-17	2.1	-5%	11	0.7%&1.6%
S=c1[nH]nc(COc2ccccc2)n1/N=C/c1cccnc1	3	1	-6	-9.6	-5%	-18	2.1%
O=C(Nc1ccc2nccnc2c1)c1cnccn1	3	-2	0	-1.2	14%	-12	-2.8%
Cc1ccc(C(NC(=O)C2CCCCC2)c2c(O)ccc3ccccc23)cc1 (stereo not given)	6	-15	-22	1.2	11%	-6	?
O=C(CCn1c(=O)oc2ccc(Cl)cc21)N1CCN(Cc2ccccc2)CC1	-11	1	2	-1.6	15%	-9	-1.1%
O=C(OCc1ccccc1F)c1ccc2c(c1)-c1ccccc1C2=O	-13	-1	-1	-2.1	-10%	5	-4.3%[38.3 µM]
COc1ccc(NC(=O)Nc2cccc3c2O[C@H](CN(C)C(=O)Nc2ccccc2)[C@@H](C)CN([C@H](C)CO)C3=O)cc1	·	3	-3	-2.9	·	-2	1.8%
CN(C)c1cc(Cl)c2nonc2c1N	0	?	?	6.1	89µM*	-8	4.5%
O=C(/C=C/c1ccco1)N1CCN(c2ncccn2)CC1	1	5	-1	-3.1	?	2	1.0%
CCC1CN(C(=O)N2CCC(C(=O)NCc3ccc(OC)cc3OC)CC2)c2ccccc2O1 (stereo not given)	-7	0	20	-0.1	5%	-1	1.4%
COc1cccc(C(=O)NCC(=O)N/N=C/c2cn[nH]c2-c2ccccc2)c1	-3	-12	-2	-3.2	20%	-1	2.5%
COc1cc(Cn2c(=O)oc3ccc(C)cc32)ccc1OC(C)C	8	6	1	0.8	5%	-11	2.1%
CC(C)CNC(=O)c1ccccc1NC(=O)/C=C/c1cccc([N+](=O)[O-])c1	6	-13	1	-2.5	4%	-16	-1.1%
COc1ccc(Nc2cccc3ccccc23)cc1	-6	3	-1	7.3	·	?	8.7%
O=C(O)CCCn1c(O)c(C=C2N=c3ccccc3=N2)sc1=S	-6	0	8	-2.3	12%	-2	3.9%
COCCNC(=O)C(c1ccc(O)cc1)N(Cc1ccco1)C(=O)CCC(=O)Nc1nccs1 (stereo not given)	8	3	-8	-0.9	6%	-2	0.7%
CCN1C(=O)c2cccc3c(S(=O)(=O)Nc4ccccc4OC)ccc1c23	3	6	-19	5.8	3%	-17	7.8%
O=C(Nc1cc2c3c(c1)C1CCCC1CN3CC1CCCC21)c1ccc([N+](=O)[O-])cc1 (stereo not given)	-18	7	-9	-0.8	27%	0	-0.4%
CC(C)(C)c1nnc(NC(=O)c2ccc(Cl)nc2)s1	5	·	-3	-4.3	9%	-1	1.9%
O=C(CC1SC(N2CCOCC2)=NC1=O)Nc1cccc(C(F)(F)F)c1 (stereo not given)	·	-6	-4	-1.4	·	-31	-0.2%
COC(CNC(=O)[C@H](Cc1ccccc1)N1Cc2ccccc2C1=O)OC	-8	7	2	14	3%	-4	0.4%
NC(=O)C1CCN(C(=O)C2c3ccccc3C(=O)N3CCc4ccccc4C23)CC1 (stereo not given)	12	5	1	-2.3	?	-4	2.2%[38.3 µM]
COc1ccc(C2c3c(oc4ccc(Cl)cc4c3=O)C(=O)N2CCN2CCOCC2)cc1 (stereo not given)	21	0	10	-0.2	4%	-10	1.6%
CCCCCCSc1ccc(-c2nc3cnccn3c2NCCCC)cc1	·	25	28	-1.4	·	-2	-1.2%
COc1cccc(CN2C(=O)c3ccccc3S2(=O)=O)c1	-7	19	24	0.2	5%	1	2.7%
COc1cc(SC)ccc1C(=O)NCCc1c[nH]c2ccccc12	0	-17	?	1.1	3%	-9	0.4%
COC1=C/C(=C/c2c(N)n3cc(C)sc3nc2=O)C=CC1=O	-1	-13	-5	-6.8	0%	-9	2.5%
CC1CCN(C(=O)c2[nH]cnc2C(=O)NCc2ccccc2)CC1	-12	5	4	-0.9	·	-9	0.2%
O=C(Nc1ccc(NC(=O)c2ccccc2)nc1)c1ccncc1	1	·	-4	-3.1	10%	-2	-0.9%
O=C(NC(=S)Nc1ccc(N2CCN(C(=O)c3ccccc3)CC2)cc1)c1cccs1	-12	-11	-9	3.4	16%	3	0.7%
CCOc1ccc(C2C(C(=O)c3ccc(C)o3)=C(O)C(=O)N2Cc2cccnc2)cc1 (stereo not given)	?	-10	-1	-5.2	0%	-6	-1.4%
CCN1C(=O)C(CC(=O)Nc2ccc(Br)cc2)N(CCCc2ccccc2)C1=S (stereo not given)	-15	-1	-3	-2.8	14%	-5	?
Cc1cc(C)cc(OCC(=O)OCC(=O)NC2CC2)c1	·	8	9	3.7	·	1	0.2%
COC/C=C/C1=CC2=CC(=O)C(C)(OC(=O)c3cnc4ccccc4n3)C(=O)C2=CN1c1ccccc1 (stereo not given)	-6	1	-12	5.2	15%&-20%	7	0.1%
CCCCC[C@@H](C)N1C[C@H](COCc2ccccc2)Oc2cc(N3CCC[C@H]3CO)ccc2S1(=O)=O	·	2	-3	·	·	·	3.0%
Cc1c(NC(=O)c2cc(S(=O)(=O)N3CCCCC3)ccc2Cl)c(=O)n(-c2ccccc2)n1C	·	1	5	-2.2	·	-4	-0.2%
N#Cc1ccccc1NC(=O)COC(=O)C1CCN(C(=O)c2ccc(Cl)cc2)CC1	12	-5	5	3.4	·	-4	-1.4%
CCC(C)NCCOCCOc1ccccc1-c1ccccc1 (stereo not given)	1	0	1	2.4	-9%	-19	-0.8%[38.3 µM]
CCC(Cc1ccccc1)NC(=O)C1CCN(S(=O)(=O)c2ccc3c(c2)CC(C)N3C(C)=O)CC1 (stereo not given)	22	-2	-5	-6.4	7%	-8	10%
Cc1nnc(-c2cnn(C)c2N)n1Cc1ccccc1F	2	9	5	-1.6	2%	-7	0.0%
CC1(C)CC2CC(C)(CN2C(=S)Nc2ccccc2F)C1 (stereo not given)	-1	14	-1	1.2	19%	-2	1.5%
CC(C)Cn1c(N)c(C(=O)COC(=O)c2cc(-c3ccccc3)nc3ccccc23)c(=O)n(C)c1=O	-2	·	0	-0.4	8%&7%	5	1.6%
Cc1ccccc1C(CC(=O)c1cccs1)C(C#N)C#N (stereo not given)	10	2	-4	-2.7	-11%	-15	-1.3%
CC(C)[C@H](NC(=O)C1CCC(CNC(=O)[C@@H]2CCCN2C(=O)OC(C)(C)C)CC1)C(=O)O (stereo not given in full)	24	10	4	-2.8	9%	0	1.5%
CCn1c(SCc2ccccc2)nc2c(c1=O)SCC2	25	-22	?	2.0	11%	-7	-1.3%
C[C@@]12CCC=C[C@H]1[C@H](c1ccc3ccccc3c1Br)N(Cc1ccccc1)C2=O	7	-7	3	-4.2	-10%	-5	-0.7%
